Vaccinia Venus – inhibitors of vaccinia virus (Venus reporter). Potency, µM (doses to about 36.5 µM), for inactives: top-dose activity change, negative = inhibition, actives largely listed as inhibitors. Vaccinia virus Venus reporter expression, fluorescence. actives 0.46% (n = 330,000); active means well fitted inhibition curve with a large enough effect; inconclusive means small, poorly fitted or top-dose-only effect; inactive means no such curve, though single readings can be large or run the other way; tested in A549 cells; note: nearly all actives have a fitted effect of over 30% in size; inactives centre near -10
Vaccinia mCherry – inhibitors of vaccinia virus infection (mCherry reporter signal). Vaccinia virus mCherry reporter infection, fluorescence; about a quarter of the inactives have no number. Potency, µM (titrated, usually from 36.5 µM), inactives show at the highest dose activity change, negative = inhibition, hits mostly inhibitors. actives 0.63% (n = 310,000); active = well fitted inhibition curve with a large enough effect; inconclusive = small, poorly fitted or top-dose-only effect; inactive = no such curve, though single readings can be large or run the other way; tested in A549 cells; note: nearly all actives have a fitted effect of over 35% in size; inactives centre near -10
Active calls of the source: *; i = inactive; ? = inconclusive; . = no result given; [ ] = another dose, or the depositor's remark. % is set by controls: 0 for no effect and ±100 for the full control effect; potency is the fitted concentration of half-maximal effect.

SMILES	Vaccinia Venus	Vaccinia mCherry
Cc1ccc(CNC(=O)CSc2nc3[nH]ncc3c(=O)[nH]2)cc1	-0.5%	-10.1%
COc1ccc(/C=[N+](\[O-])C2N(c3ccccc3)C(=S)SC2(C)C)cc1OC (configuration not stated)	-8.4%	-22.0%
Cc1ccc(-c2cc(-c3ccc(Cl)cc3)c(C#N)c(N)n2)o1	-4.3%	-12.1%
Cc1cc2ccc3ccccc3c2cc1CN(C)C	0.6%	-12.4%
O=C(Nc1ccc(S(=O)(=O)Nc2nccs2)cc1)c1c(F)c(F)c(F)c(F)c1F	?	?
COC(=O)C1C2c3ccccc3OC1(C)N=c1s/c(=C/c3cnn(C)c3C)c(=O)n12 (configuration not stated)	-18.0%	.
CCOC(CC(=O)NNC(=O)c1c(-c2c(Cl)cccc2Cl)noc1C)OCC	-14.9%	-10.6%
O=C(NNC(=O)c1cccnc1)Nc1ccc(Cl)c(Cl)c1	52.9%[activator]	56.3%[activator]
COc1ccc(N2CCN(c3nccs3)CC2)cc1	-4.4%	?
Cc1ccc2c(C)c(C(=O)Nc3c(C)n(C)n(-c4ccccc4)c3=O)oc2c1C	-13.6%	-4.0%
O=[N+]([O-])c1ccc(C2(O)CN(c3ccccc3)C3=[N+]2CCS3)cc1 (configuration not stated)	1.8%	-16.9%
CC(NC(=O)c1cc(S(=O)(=O)N2CCOCC2)ccc1N1CCCC1)c1ccc(Cl)c(Cl)c1 (configuration not stated)	?	-27.1%
Cc1cc(NC(=O)Nc2ccc(Cl)cc2)no1	-1.7%	-9.4%
CCSc1nnc(NC(=O)CSc2nc(CC)nc3c2c(=O)n(C)c(=O)n3C)s1	-6.7%	-7.6%
COc1ccc(CCN(C(=O)C(F)(F)F)C(C(=O)NC2CCCC2)c2cccs2)cc1 (configuration not stated)	?	-19.3%
Cc1ccc(SCc2ccc(C(=O)N3CCCC3)cc2)cc1	-11.5%	-16.0%
CC1=C(C(=O)OCC(C)C)C(c2cccs2)NC(=S)N1 (configuration not stated)	?	?
Cc1ccc2oc(=O)c3cnn(CC(=O)N4CCN(c5cccc(C(F)(F)F)c5)CC4)c3c2c1	-9.5%	-6.4%
CSc1cccc(NC(=O)c2cc(S(=O)(=O)N3CCCCC3)c[nH]2)c1	-6.1%	-14.4%
Cc1cc(NC(=O)C(C)SCC(=O)N(C)CC(=O)Nc2ccc(F)cc2)no1 (configuration not stated)	-9.4%	-12.3%
CCC1(c2ccccc2)NC(=O)N(CC(=O)Nc2ccc3c(C)cc(=O)oc3c2)C1=O (configuration not stated)	-19.0%	-29.2%
COC(=O)C1=C(C)N=C2SC(C#N)=C(N)N2C1c1ccc(OCc2ccccc2)cc1 (configuration not stated)	-28.8%	.
CC(=O)O[C@]1(C)C(=O)OC/C2=C/CN(C)CCC(OC(=O)[C@@](O)(C(C)O)C[C@H]1C)C2=O (some centres not stated)	-2.8%	?
O=C(NC(Cc1ccccc1)C(=O)N1CCCC(C(F)(F)F)C1)c1ccccc1 (configuration not stated)	-2.1%	-2.1%
COc1ccc(NC(=O)CN(C)C(=O)c2ccccc2CCc2ccccc2)cc1	-14.5%	?
COc1ccc(C(=O)c2cn(CC(=O)Nc3cc(OC)cc(OC)c3)c3ccc(OC)cc3c2=O)cc1	-4.4%	-6.3%
Cc1ccc(N(CC(O)CN2CCCC2)S(=O)(=O)c2ccccc2)cc1 (configuration not stated)	-21.8%	-14.6%
CNC(C)Cc1ccccc1 (configuration not stated)	-10.4%	i
CCOc1ccccc1NC(=O)CSc1nnnn1Cc1ccccc1	-15.7%	i
O=C(CN1c2ccccc2Sc2ccccc21)N/N=C/c1ccccc1	?	?
COc1cc(OC)c(NS(=O)(=O)c2cc(C(=O)NCCCN3CCOCC3)ccc2C)cc1Cl	-7.3%	-8.0%
Cc1cc(C)cc(N(CCC#N)C(=O)CSC2=Nc3ccccc3C3CC=NN23)c1 (configuration not stated)	-9.0%	-16.5%
COc1ccc(C(=O)NNC2=NCCCCC2)cc1	-5.3%	-7.7%
COc1cccc(/C=N/NC(=O)c2nc(-c3ccccc3)cc(-c3ccccc3)n2)c1O	-17.4%	-21.2%
COc1ccccc1-n1cnnc1SCC(=O)N1CCOCC1	-5.8%	-19.2%
O=[N+]([O-])c1ccc(N2CCN(C(=S)Nc3ccc(F)cc3F)CC2)cc1	-21.1%	-8.1%
CCCc1cc(=O)[nH]c2nnc(SCC(=O)Nc3ccc(OC)cc3)n12	-6.9%	-15.6%
CC(=O)Nc1cc[n+](C(C)C(=O)c2ccc(Cl)cc2)cc1 (configuration not stated)	0.3%	-10.2%
COc1cccc(-n2cnnn2)c1	-12.5%	-11.8%
CCn1c(SCC(=O)Nc2oc(C)c3c(C)n[nH]c(=O)c23)nc2sc(C)c(C)c2c1=O	-7.7%	-20.4%
COc1ccc(OCC(=O)Nc2cc(C)c(Cl)cc2OC)c([N+](=O)[O-])c1	-0.6%	-12.7%
CCCOC(=O)Cc1c(O)c2ccccc2[nH]c1=O	-3.6%	-10.1%
Cc1ccc(C)c(NC(=O)C2CC(=O)N(C(C)C)C2)c1 (configuration not stated)	-5.7%	-1.0%
O=C(NCC(=O)N(Cc1ccco1)C(C(=O)NC1CCCC1)c1ccncc1)c1cccs1 (configuration not stated)	-4.6%	i
CCOC(=O)c1c(NC(C)=O)sc2c1CCC(C=O)=C2Sc1ccccc1	-19.4%	?
CCOc1ccc(NC(=O)c2oc3ccccc3c2NC(=O)C(C)Oc2ccccc2)cc1 (configuration not stated)	-8.8%	i
Cc1nc2c(cnn2CCO)c(=O)[nH]1	0.0%	i
O=C(Nc1nccs1)c1ccc(-c2cccc([N+](=O)[O-])c2)o1	-1.5%	3.0%
Cc1cc(NC(=O)c2cn(C3CCCCC3)c(=O)c3c2c2ccccc2n3C)no1	-20.5%	-17.1%
CC(C)Cn1c(/C=C/c2ccccc2)nc2ccccc21	?	-10.9%
CC(=O)N1c2c(cc(Br)cc2S(=O)(=O)NCc2ccccc2)CC1C (configuration not stated)	-8.6%	-21.9%
Cc1c(NC(=O)CN2C(=O)NC(C)(c3ccc4c(c3)OCCO4)C2=O)c(=O)n(-c2ccccc2)n1C (configuration not stated)	-11.4%	-14.1%
Cc1nn(-c2ccccc2)c(N)c1-c1ccccc1	-16.4%	?
COCCCNC(=O)/C=C/c1c(Cl)cccc1Cl	-12.4%	-22.1%
COc1cc(C(O)c2nc(-c3cccc(NC(C)=O)c3)cs2)ccc1F (configuration not stated)	-5.6%	4.6%
CCc1ccc(CNC(=O)c2sc3ncccc3c2-n2c(C)ccc2C)cc1	-17.6%	-15.7%
CC(=O)Nc1cncc(-c2ccccc2F)n1	1.7%	24.0%
O=CNCc1nc2ccccc2n1CCc1ccccc1	-11.5%	-13.9%
COc1ccc(C(=O)OCC(=O)NCc2ccc3c(c2)OCO3)cc1S(=O)(=O)N1CCOCC1	-10.5%	-29.3%
CCS(=O)(=O)N1CCC2(CC1)OC(=O)C(C)=C2C(=O)NCc1cccc(Cl)c1	-1.1%	-4.1%
(more compounds)
SMILES	Vaccinia Venus	Vaccinia mCherry
NC(=O)CC(NC(=O)Cc1cccc2ccccc12)c1ccc(NC2CC3CCC2C3)c([N+](=O)[O-])c1 (configuration not stated)	-26.3%	?
Cc1cc(C(=O)NNC(=O)CCCCC(=O)NNC(=O)c2cc(C)[nH]n2)n[nH]1	3.7%	-10.3%
COCCN(Cc1ccc(C)c(Br)c1)S(=O)(=O)c1ccc2[nH]c(=O)ccc2c1	-6.3%	-7.4%
O=C(O)COc1ccc(/C=C/c2nc3ccc([N+](=O)[O-])cc3s2)cc1	-7.6%	-14.0%
Cc1ccc(C(C)C)c(OCCCn2c(=O)oc3ccc(C)cc32)c1	-8.9%	3.6%
Cc1cc(NS(=O)(=O)c2ccc(NC(=O)c3ccoc3C)cc2)nc(C)n1	4.1%	.
Cc1ccccc1NC(=O)c1nc(SCc2ccccc2F)ncc1Cl	-18.1%	24.1%
Cc1cccc(NC(=O)C2CCCN(c3nc4ccccc4s3)C2)c1C (configuration not stated)	-5.7%	-11.3%
O=C(NCCCN1CCC(Cc2ccccc2)CC1)C1CCC(=O)N1C1CCCC1 (configuration not stated)	-12.2%	i
CCOC(=O)c1ccc(N2C(=O)CC(N3CCN(Cc4ccccc4)CC3)C2=O)cc1 (configuration not stated)	-17.4%	.
CC(O)CSc1nc2c(c(=O)n(C)c(=O)n2C)n1CCCc1ccccc1 (configuration not stated)	-24.5%	i
COc1cccc(N/C(SCc2ccccc2Cl)=C(/C#N)C(=O)NCc2cccs2)c1	-16.0%	?
Oc1ccc(Cl)cc1Cc1cc(Cl)ccc1O	?	?
Cc1c(-c2ccccc2)n(-c2ccccc2O)c2nc3c(c(=O)n(C)c(=O)n3C)n12	-15.7%	-17.6%
COc1ccc(C(CNC(=O)c2cccc(S(=O)(=O)Nc3ccc(C)cc3)c2)N2CCCCC2)cc1 (configuration not stated)	-26.9%	-15.6%
CCOc1ccc(-n2nc3ccc(NC(=O)COc4ccccc4C)cc3n2)cc1	?	?
CCOc1ccccc1NC(=O)Cc1c(F)cccc1Cl	-9.5%	-10.1%
COc1ccc(C(=O)Nc2cccc(NC(C)=O)c2)cc1OC	-11.8%	-22.3%
Cc1cc(OCC(=O)N2CCCCCC2)ccc1[N+](=O)[O-]	-22.1%	-6.8%
CCc1cccc(NC(c2ccccc2)c2nnc(-c3ccccc3F)o2)c1 (configuration not stated)	-11.5%	-3.1%
COc1cccc(C(=O)NCCNc2nc3cc(C)cc(C)c3cc2C#N)c1	-15.3%	-23.9%
COc1cccc(NC(=O)N(Cc2c[nH]c3ccccc23)C2CCCCCC2)c1	?	?
Cc1ccc(NC(=O)c2cc(-c3ccccc3O)n[nH]2)cc1C	-7.0%	i
CCOC(=O)C1CCN(CCC(=O)Nc2cccc(Cl)c2C)CC1	-9.9%	-15.3%
CCOc1cc(CNCCO)cc(Br)c1OCc1ccccc1	?	?
O=C(NCc1cccs1)C(Cc1ccccc1)n1cccc1 (configuration not stated)	-23.7%	-7.4%
CC[N+](C)(C)c1ccc(/C=C/c2ccc3ccccc3n2)cc1	148.2%[activator]	121.3%[activator]
O=C(C[n+]1csc2ccccc21)c1ccc(O)c(O)c1	?	?
COC(=O)Nc1ccc(SCC(=O)c2ccccc2)cc1	-12.9%	-13.3%
O=S(=O)(NCCc1cn2ccsc2n1)c1ccc(Cl)cc1	-10.3%	-10.5%
CC1=CS(=O)(=O)CC1Sc1nc2ccccc2[nH]1 (configuration not stated)	-2.6%	-5.5%
O=C(N/N=C/c1cccc(O)c1)c1csc2ccccc12	-6.6%	.
O=C(NN=C1CCCCCC1)c1ccc(Br)o1	-10.5%	i
Cc1ccc(Cc2cnc(NC(=O)c3ccc4c(c3)CC(c3ccccc3)OC4=O)s2)cc1 (configuration not stated)	-19.5%	-27.1%
N#Cc1ccccc1S(=O)(=O)N1CCN(C(=O)c2cc(-c3ccccc3)nn2-c2ccccc2)CC1	-13.4%	-13.9%
Cc1c(C(=O)NCCCN2CCOCC2)sc2nc(-c3ccc(F)cc3)cn12	-21.8%	-25.4%
COc1cc(C2C(C(C)=O)=C(C)Nc3ncnn32)ccc1O (configuration not stated)	-17.5%	.
CN(C)/C(=N\S(=O)(=O)c1ccccc1)c1ccc([N+](=O)[O-])cc1	-9.7%	-6.1%
COc1ccc(C(CNC(=O)c2cccc(NS(=O)(=O)c3ccccc3)c2)N(C)C)cc1 (configuration not stated)	-15.9%	-16.6%
O=C(NC(Cc1c[nH]c2ccccc12)C(=O)Nc1ccc(F)c([N+](=O)[O-])c1)c1cccs1 (configuration not stated)	2.6%	2.51µM*
CC(=O)NC(c1ccc(F)c(F)c1)c1nc(-c2cccc(C(F)(F)F)c2)cs1 (configuration not stated)	-7.7%	i
COc1ccc(NC(=O)c2ccc3c(SCC(=O)O)c4c(nc3c2)CCC4)c(OC)c1	1.5%	-7.8%
CC1=Nn2c(nnc2-c2cc(-c3ccccc3)n[nH]2)SC1	-9.6%	.
CCOC(=O)[C@]12CCC=C1N(Cc1ccc(Cl)cc1Cl)C(=O)[C@H](CC(=O)N1CCC(c3ccccc3)CC1)C2	-5.0%	13.2%
Cn1c(Cn2c(=O)sc3ccccc32)nnc1SCC(=O)NCc1ccco1	-3.8%	-5.2%
Cc1ccc(NC(=O)Cn2c(=O)n(Cc3ccc4c(c3)OCO4)c(=O)c3ccccc32)cc1	-5.2%	-15.8%
O=[N+]([O-])c1ccc(Sc2ccccn2)nc1	?	?
CC(C)(C)c1ccc(S(=O)(=O)N2CCN(c3ncccn3)CC2)cc1	-20.5%	-17.4%
COc1cccc(CNc2ccc(N3CCCCC3)cc2)c1OC	31.6%[activator]	.

Source: PubChem BioAssay

Rows were taken by chance; about 0.88% have a hit in one of these screens.
